# PKD1 kinase inh = inhibitors of human PKD1 kinase, biochemical, fluorescence polarization. Serine/threonine-protein kinase D1 (Homo sapiens), Q15139. PKD1 kinase fluorescence polarization assay. inhibition, %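 (about 10 µM by stock and volumes)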. 200,000 tested, 0.056% active;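 active = inhibition of 50% or more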;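 also: controls were vehicle for no effect and a reference inhibitor for full effect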
# HSV augment = enhancers of HSV replication in host cells, fold increase, host cell viability; HSV replication augmentation in cells; 220,000 tested, 0.005% active; AID 1956, 2009; maximum fold increase;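 active = peak rise of 1.5-fold or more in the series; tested in PC3 cells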;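 also: first round at 10 µM; read as green reporter fluorescence; hits show the peak of a series up to 25 µM; 1 = signal of infected wells without compound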
# INS promoter inh = inhibitors of insulin promoter-driven GFP, primary screen, imaging, TRM-6 cells (human fetal islet line), eGFP reporter, cell count | inhibition, % at 2 µM | reporter expression induced with tamoxifen | 130,000 tested, 0.9% active;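 active = inhibition above the mean plus 3 SD, with well images judged a real hit on visual review, cut at about 60% in these data, passing the limit was not always enough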
# RGS16-Gao HTS = modulators of RGS16 binding to Galphao, primary screen, biochemical, human proteins, multiplexed bead flow cytometry | Regulator of G-protein signaling 16 (Homo sapiens) + Guanine nucleotide-binding protein … | bead-based flow cytometry RGS16-Galphao binding, fluorescence; actives lie on both sides | binding response (% of control), % at 10 µM | 220,000 tested, 0.38% active | AID 1441, 2008;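 active = below 25% or above 175%, edge rows of some plates excepted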;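 also: Galphao activated by GDP with aluminum fluoride before binding; 100% = wells without compound and 0% = beads without RGS; some results beyond the cut were filed as inactive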
# Target sequence (O15492 whole entry, looked up): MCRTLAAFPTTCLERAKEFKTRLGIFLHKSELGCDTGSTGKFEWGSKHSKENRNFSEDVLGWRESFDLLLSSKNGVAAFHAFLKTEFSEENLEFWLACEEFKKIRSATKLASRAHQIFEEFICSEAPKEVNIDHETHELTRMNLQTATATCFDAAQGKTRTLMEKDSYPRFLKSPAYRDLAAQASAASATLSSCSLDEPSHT
# Target sequence (P09471 whole entry, looked up): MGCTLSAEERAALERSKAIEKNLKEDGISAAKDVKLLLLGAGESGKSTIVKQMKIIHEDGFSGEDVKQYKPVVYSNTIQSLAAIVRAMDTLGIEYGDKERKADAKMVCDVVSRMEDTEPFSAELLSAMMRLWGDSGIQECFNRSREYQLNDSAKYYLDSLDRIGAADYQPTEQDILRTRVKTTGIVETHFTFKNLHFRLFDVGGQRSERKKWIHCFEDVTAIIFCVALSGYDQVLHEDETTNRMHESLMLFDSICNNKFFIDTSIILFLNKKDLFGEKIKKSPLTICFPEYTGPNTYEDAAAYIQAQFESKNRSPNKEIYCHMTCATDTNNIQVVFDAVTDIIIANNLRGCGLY
# GALR2 agonist = GALR2 receptor agonists, primary screen, cell-based; activation, %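 (tested at 5 µM)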; AID 803, 2007; 140,000 tested, 0.48% active; Galanin receptor type 2 (Homo sapiens), O43603; GALR2-expressing cells, agonist activation read-out;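 active = above mean plus 3 SD of all compounds, about 5% in these data, not always enough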;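 also: 0% = vehicle buffer wells and 100% = reference agonist at full effect; tested in CHO reporter cells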
# Target sequence (O43603 whole entry, looked up): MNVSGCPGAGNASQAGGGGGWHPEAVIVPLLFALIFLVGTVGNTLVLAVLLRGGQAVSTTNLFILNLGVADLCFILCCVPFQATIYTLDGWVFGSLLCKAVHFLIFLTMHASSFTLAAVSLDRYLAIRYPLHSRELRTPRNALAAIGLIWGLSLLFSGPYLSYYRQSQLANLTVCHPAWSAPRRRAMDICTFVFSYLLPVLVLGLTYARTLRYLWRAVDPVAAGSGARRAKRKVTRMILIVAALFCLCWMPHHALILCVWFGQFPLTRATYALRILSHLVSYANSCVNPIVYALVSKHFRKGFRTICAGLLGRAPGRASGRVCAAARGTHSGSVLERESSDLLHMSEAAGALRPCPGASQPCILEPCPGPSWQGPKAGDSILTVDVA
# INS promoter inh cell count = also measured in INS promoter inh; calls as there; normalized cell count, %; measured here: cell count, toxicity; reference of the scale not given here;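 cells exposed to compound for 48 h; stained nuclei by imaging scaled within each plate; lower means fewer cells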
# HSV augment primary fold = also measured in HSV augment; calls as there; fold increase; compound at 10 µM; measured here: primary screen fold increase 10 uM; tested in PC3 cells;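 GFP signal in the first replicate; 1 = infected wells without compound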
# * marks the source's active call; other numbers are inactive results; i = inactive; nt = not tested or not shown.
# Each structure is followed by: PKD1 kinase inh, HSV augment, HSV augment primary fold, INS promoter inh, INS promoter inh cell count, RGS16-Gao HTS, GALR2 agonist
N/C(Cc1cccc2ccccc12)=N\OC(=O)c1ccc2c(c1)OCO2
    1, i, 1, nt, nt, 101, nt
CN1C(c2ccc(F)cc2)=CS/C1=C(/C#N)c1nnc(N2CCOCC2)n1-c1ccccc1
    -14, i, 0.91, 0, 156, 87, -0.1
COc1ccc(CSCC(=O)Nc2ccccc2SC)cc1
    3, i, 0.91, -367, 39, 101, -2.2
O=C(Cn1c(=O)n(-c2ccccc2)c(=O)n1CC(=O)N1CCCCC1)N1CCCCC1
    -15, i, 1, nt, nt, 41, 0.3
COc1cccc(-c2nnn(CCc3nn[nH]n3)n2)c1
    0, i, 0.89, -100, 90, 106, -3.6
O=C1CC(NCc2ccncc2)C(=O)N1c1ccccc1 (configuration not stated)
    -4, i, 1, -23, 110, 93, -0.9
COc1ccccc1NC(=O)CSc1nc(C)c2c(c1C#N)CCCC2
    0, i, 0.96, 11, 89, 98, -2.2
COc1ccc(/C=C/C(=O)c2cc(F)ccc2OC(=O)c2ccccc2OC)cc1OC
    -4, i, 0.7, -150, 9, 99, nt
Oc1ccccc1C(=S)N1CCN(c2cccc(Cl)c2)CC1
    -3, i, 1.1, nt, nt, 90, nt
COc1ccc(/C=N/NC(=O)CCn2nnc3ccccc32)cc1
    nt, i, 1, nt, nt, 100, nt
COC(=O)c1[nH]c2ccccc2c1NS(=O)(=O)c1ccc(F)c(C)c1
    0, i, 0.81, 17, 136, 103, -1.1
CNS(=O)(=O)c1cccc(C(=O)OCC(=O)Nc2ccccc2OC(F)F)c1
    1, i, 0.9, -6, 108, 101, -1.8
O=C(O)/C=C/c1ccc2c(c1)OCCO2
    nt, i, 0.95, nt, nt, 103, nt
Cc1ccc(C(=O)N2CCN(c3ncnc4c(C)csc34)CC2)cc1
    nt, i, 1, nt, nt, 96, nt
CCOC(=O)Cn1c(C)c(Br)c(=O)c2cccc(C)c21
    -8, i, 1.2, nt, nt, 99, -1.3
CCCOC(=O)c1ccc(OCC(O)Cn2c(C)nc3ccccc32)cc1 (configuration not stated)
    -3, nt, nt, 0, 76, 145, -1.7
Cc1cccc(NC(=O)CCN2C(=O)C3C4C=CC(C4)C3C2=O)n1 (configuration not stated)
    -17, i, 0.91, 38, 132, 106, -0.7
CC(NC(=O)c1ccc(Br)cc1)C(=O)NC1=NCCS1 (configuration not stated)
    -2, i, 0.99, nt, nt, 95, nt
CCc1c(C)nc2c(OC)cccc2c1Cl
    -2, i, 1, nt, nt, 102, nt
COC(=O)Nc1ccc(C)c(NC(=O)OC)c1
    7, i, 1.1, 53, 104, 102, -1.1

# (listing goes on)
# Each structure is followed by: PKD1 kinase inh, HSV augment, HSV augment primary fold, INS promoter inh, INS promoter inh cell count, RGS16-Gao HTS, GALR2 agonist
CC1CN(c2nc3ccccc3nc2C(C#N)C(=O)NCc2ccc3c(c2)OCO3)CC(C)O1 (configuration not stated)
    -3, i, 1.2, 14, 116, 105, 0.3
O=C(NC12CC3CC(CC(C3)C1)C2)N1CCN(c2ccccn2)CC1
    0, i, 0.74, 3, 227, 110, 1.0
CCOc1ccc(C(=O)NC(=S)Nc2ccc(N3CCCCC3)cc2)cc1[N+](=O)[O-]
    2, i, 0.95, 0, 91, 113, -0.1
N#CC(=C1CCCC1)c1nc(-c2ccccc2O)cs1
    -12, i, 0.94, nt, nt, 98, -1.2
CCOC(=O)CSc1nnc(CNC(=O)c2cccs2)n1CCc1ccccc1
    -13, i, 0.96, nt, nt, 112, -1.4
CC1CCCC(NC(=O)CSc2nccn2C)C1C (configuration not stated)
    6, i, 1.2, nt, nt, 3, -1.9
Cc1[nH]c(=O)[nH]c(=O)c1S(=O)(=O)N1CCOCC1
    -6, i, 0.96, -22, 76, 96, -1.4
Cc1cc(Cl)cc(Br)c1OCCCCn1cncn1
    -8, i, 0.91, -272, 25, 102, -2.8
NNC(=O)[C@H](Cc1ccccc1)NC(=O)Nc1ccc2c(c1)OCCO2
    nt, i, 0.88, nt, nt, 99, nt
COc1cc(S(=O)(=O)N2CCOCC2)ccc1NC(=O)c1cc2c(s1)CCC2
    -9, i, 0.93, 6, 106, 102, -0.6
CCCCC(=O)N(c1ccc(OC)cc1)C1C=CS(=O)(=O)C1 (configuration not stated)
    -1, i, 0.99, 43, 104, 110, -1.1
O=S(=O)(NCc1ccccc1)NCc1ccccc1F
    -2, nt, nt, -54, 108, 99, nt
Cc1cc(Cl)c2c(c1)[C@]1(C(=O)N2)[C@@H]2C(=O)N(Cc3ccccc3)C(=O)[C@@H]2[C@@H]2CCCN21
    1, i, 0.94, nt, nt, 101, -0.8
O=C(NCCc1ccncc1)Nc1cccc(Cl)c1
    -1, i, 0.98, -11, 216, 89, -1.4
CC(=O)Nc1ccc(NC(=O)c2ccc(Cl)nc2)cc1
    nt, i, 0.97, nt, nt, 105, nt
COc1ccc(CCNc2ccc(C(=O)O)cc2[N+](=O)[O-])cc1OC
    -9, i, 0.87, 41, 87, 96, nt
C/C(=N\NC(=O)c1cccc(Br)c1)c1ccc(Br)cc1
    1, i, 0.8, 12, 85, 100, -3.9
CCOC(=O)C(=O)Nc1nccs1
    -4, i, 0.92, nt, nt, 100, nt
O=C(Nc1nc(SCc2ccc(F)cc2)ns1)c1ccco1
    -6, i, 0.75, -94, 136, 107, -2.3
COCCn1nnnc1C(c1ccc(C)cc1)N1CCN(Cc2ccc3c(c2)OCO3)CC1 (configuration not stated)
    -3, i, 0.96, nt, nt, 99, -1.7

# New compounds follow
# Each structure is followed by: PKD1 kinase inh, HSV augment, HSV augment primary fold, INS promoter inh, INS promoter inh cell count, RGS16-Gao HTS, GALR2 agonist
C/C(=N\N(c1ccccc1)c1ccccc1)c1ccco1
    8, i, 1, nt, nt, 98, nt
CCCC1=C(C(=O)OCC)C(c2sccc2C)n2ncnc2N1 (configuration not stated)
    nt, i, 0.93, nt, nt, 86, nt
CC1CC(=O)NN=C1c1ccc(NCCO)c([N+](=O)[O-])c1 (configuration not stated)
    0, i, 0.93, -19, 104, 99, -3.1
CC1(C)NC(=O)N(CC(=O)OCc2cc(=O)n3cc(Br)ccc3n2)C1=O
    1, i, 1, nt, nt, 99, nt
O=S(=O)(c1cccc(NC(=S)N2CCN(c3cccc(Cl)c3)CC2)c1)C(F)F
    -8, i, 1.1, nt, nt, 102, 0.0
O=C(COC(=O)C1CC(O)CN1S(=O)(=O)c1ccc(Cl)cc1)c1ccccc1Cl (configuration not stated)
    -1, i, 0.92, 21, 140, 102, -0.1
CCN(CC)C(=O)CC(c1ccc(N(C)C)cc1)c1c(OC)cc(OC)c2c(-c3ccccc3)cc(=O)oc12 (configuration not stated)
    nt, i, 0.87, nt, nt, 99, nt
COc1ccc(C(=O)Nn2c(SCc3ccc([N+](=O)[O-])cc3)nc3ccccc3c2=O)cc1
    -16, i, 0.83, -26, 173, 101, -3.1
CCC(C(=O)NC1CCCC1)N(C(=O)Cn1nnc(-c2ccc(C)o2)n1)C(C)(C)C (configuration not stated)
    -5, i, 0.94, nt, nt, 92, -1.7
O=[N+]([O-])c1ccn(-c2nc(-c3cccs3)cc(C(F)(F)F)n2)n1
    4, i, 0.69, -67, 106, 102, nt
O=C(NCc1ccco1)c1ccc(CS(=O)(=O)c2cccc(C(F)(F)F)c2)o1
    5, i, 0.87, nt, nt, 104, -0.9
CCOC(=O)c1c(NC(=O)Nc2ccc(Cl)cc2)sc(C)c1C
    0, i, 1, -37, 260, 103, -0.7
CCOc1ccccc1N(CC(=O)NC1CCCC1)C(=O)CCC(=O)Nc1cc(C)on1
    -10, i, 1, -13, 115, 99, -5.8
Cn1cnnc1SCC(=O)Nc1ccc(Cl)c(S(=O)(=O)N2CCOCC2)c1
    -2, i, 0.93, nt, nt, 102, nt
COC(=O)Nc1ccc(S(=O)(=O)Nc2ccc(C)cc2)cc1
    3, i, 0.97, -3, 96, 98, -0.4
O=C1c2ccccc2NC(c2ccccc2)N1Cc1ccco1 (configuration not stated)
    2, nt, nt, nt, nt, 100, -1.4
CC(=O)c1cccc(OCC(=O)c2cc(C)n(-c3cc(C)on3)c2C)c1
    -1, i, 0.86, 18, 102, 99, -0.7
O=C(CSc1ccc2nnc(-c3ccccc3)n2n1)NCC1CCCO1 (configuration not stated)
    -9, i, 0.95, -76, 68, 99, -1.5
Cc1nn2c(-n3ccnc3)c3c(nc2c1-c1ccccc1)CCC3
    -6, i, 0.93, nt, nt, 103, -1.6
Oc1cccc(C(Nc2nccs2)c2ccc3cccnc3c2O)c1 (configuration not stated)
    -2, i, 0.79, nt, nt, 82, nt

# The list goes on:
# Each structure is followed by: PKD1 kinase inh, HSV augment, HSV augment primary fold, INS promoter inh, INS promoter inh cell count, RGS16-Gao HTS, GALR2 agonist
CCOC(=O)c1[nH]c2ccc(Br)cc2c1NC(=O)CCN1CCC(C)CC1
    -8, i, 0.76, -4, 80, 98, -2.0
c1csc(COc2ccccc2CNC2CCCCC2)c1
    0, i, 0.86, nt, nt, 93, -0.7
COc1ccccc1-n1c(=O)c(C#N)c(-c2ccc([N+](=O)[O-])cc2)c2cc(C(=O)c3ccccc3O)cnc21
    nt, i, 0.93, nt, nt, 91, nt
Cc1ccc(C)c(N2CCN(c3cnn(-c4nc5ccccc5s4)c(=O)c3Cl)CC2)c1
    5, i, 1.2, -18, 116, 106, 0.0
COc1ccc(NC(=O)CNS(=O)(=O)c2cccc3nonc23)c(OC)c1
    3, i, 1.1, -28, 115, 108, -0.8
CC(=O)c1ccc(NC(=S)N2c3ccccc3CC2C)cc1 (configuration not stated)
    7, i, 0.99, 21, 110, 102, nt
CSc1ccc(C#N)cc1NC(=O)c1ccccc1C
    2, i, 1, nt, nt, 102, nt
COc1nccc(-c2ccc(F)cc2)c1C#N
    -7, i, 0.95, -38, 73, 98, nt
Cc1nc2cc(Cl)c([N+](=O)[O-])cc2s1
    -2, i, 1.1, nt, nt, 110, nt
CC(C)(C)c1ccc(C(=O)N2CCN(CCNC(=O)C(=O)NCc3ccccc3)CC2)cc1
    -12, i, 1.1, -48, 85, 100, 0.0
COc1ccc([C@H]2[C@@H](C#N)[C@H](C#N)N3CCCN23)cc1
    -8, i, 0.8, 29, 105, 107, -1.3
C#CCOC(=O)C1C2C=CC(C2)C1C(=O)O (configuration not stated)
    0, i, 1.1, nt, nt, 98, -1.4
COc1ccc(C2=NO[C@@H]3C(=O)N(c4c(C)cccc4C)C(=O)[C@H]23)cc1OC
    -11, i, 0.85, nt, nt, 101, -0.3
Cc1ccc(C(=O)NCCCNCCCNC(=O)c2ccc(C)nc2)cn1
    0, i, 0.79, -3, 231, 104, -1.9
COc1ccc(OC)c(-c2[nH]nc3c2C(c2ccco2)C(C#N)=C(N)O3)c1 (configuration not stated)
    -9, i, 0.92, 45, 142, 97, -2.0
N/C(Cn1cncn1)=N\OC(=O)c1ccc(Cl)cc1Cl
    -2, i, 0.92, nt, nt, 101, nt
Cc1nn(-c2ccccc2)nc1CNC(=O)CC(C)(C)C
    nt, i, 0.84, nt, nt, 85, nt
O=C(NNC(=S)NCC1CCCO1)c1cccc(S(=O)(=O)N2CCOCC2)c1 (configuration not stated)
    5, i, 0.92, nt, nt, 90, nt
CCOC(=O)c1oc2ccccc2c1CN1CCN(C)CC1
    -6, i, 1, 38, 120, 99, 0.8

# 4 entries from above, field by field:
O=C1c2ccccc2NC(c2ccccc2)N1Cc1ccco1 (configuration not stated)
  PKD1 kinase inh: 2; HSV augment: nt; HSV augment primary fold: nt; INS promoter inh: nt; INS promoter inh cell count: nt; RGS16-Gao HTS: 100; GALR2 agonist: -1.4

CC(=O)c1cccc(OCC(=O)c2cc(C)n(-c3cc(C)on3)c2C)c1
  PKD1 kinase inh: -1; HSV augment: i; HSV augment primary fold: 0.86; INS promoter inh: 18; INS promoter inh cell count: 102; RGS16-Gao HTS: 99; GALR2 agonist: -0.7

O=C(CSc1ccc2nnc(-c3ccccc3)n2n1)NCC1CCCO1 (configuration not stated)
  PKD1 kinase inh: -9; HSV augment: i; HSV augment primary fold: 0.95; INS promoter inh: -76; INS promoter inh cell count: 68; RGS16-Gao HTS: 99; GALR2 agonist: -1.5

Cc1nn2c(-n3ccnc3)c3c(nc2c1-c1ccccc1)CCC3
  PKD1 kinase inh: -6; HSV augment: i; HSV augment primary fold: 0.93; INS promoter inh: nt; INS promoter inh cell count: nt; RGS16-Gao HTS: 103; GALR2 agonist: -1.6

# Bioassay records deposited in PubChem by several laboratories.

# Rows were taken by chance. Share with any hit: about 1.3%.
